Arbovirus inh = antivirals against arbovirus infection, primary screen, cell-based, full library, 10K replicate subset; arbovirus infection cell-based antiviral screen; inhibition, % at 10 µM; hit rate 0.37% among 200,000;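 active means inhibition from about 30%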;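 further: bluetongue infection of BSR cells; cell survival read as ATP light after 72 h; 0% = infected wells without compound and 100% = uninfected wells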
RecA splice inh = Mtb RecA intein splicing inhibitors, primary screen, biochemical, fluorescence, HTS. Protein RecA (Mycobacterium tuberculosis (strain ATCC 25618 / H37Rv)), P9WHJ3. cell-free RecA intein splicing. hit rate 0.75% among 290,000. inhibition, %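 (about 9 µM by stock and volumes)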; in the data active means inhibition above about 30%; inconclusive means no clear call, values can overlap the other calls;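 further: 0% = vehicle wells and 100% = reference inhibitor control wells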
Target sequence (P9WHJ3 whole entry, looked up, canonical isoform): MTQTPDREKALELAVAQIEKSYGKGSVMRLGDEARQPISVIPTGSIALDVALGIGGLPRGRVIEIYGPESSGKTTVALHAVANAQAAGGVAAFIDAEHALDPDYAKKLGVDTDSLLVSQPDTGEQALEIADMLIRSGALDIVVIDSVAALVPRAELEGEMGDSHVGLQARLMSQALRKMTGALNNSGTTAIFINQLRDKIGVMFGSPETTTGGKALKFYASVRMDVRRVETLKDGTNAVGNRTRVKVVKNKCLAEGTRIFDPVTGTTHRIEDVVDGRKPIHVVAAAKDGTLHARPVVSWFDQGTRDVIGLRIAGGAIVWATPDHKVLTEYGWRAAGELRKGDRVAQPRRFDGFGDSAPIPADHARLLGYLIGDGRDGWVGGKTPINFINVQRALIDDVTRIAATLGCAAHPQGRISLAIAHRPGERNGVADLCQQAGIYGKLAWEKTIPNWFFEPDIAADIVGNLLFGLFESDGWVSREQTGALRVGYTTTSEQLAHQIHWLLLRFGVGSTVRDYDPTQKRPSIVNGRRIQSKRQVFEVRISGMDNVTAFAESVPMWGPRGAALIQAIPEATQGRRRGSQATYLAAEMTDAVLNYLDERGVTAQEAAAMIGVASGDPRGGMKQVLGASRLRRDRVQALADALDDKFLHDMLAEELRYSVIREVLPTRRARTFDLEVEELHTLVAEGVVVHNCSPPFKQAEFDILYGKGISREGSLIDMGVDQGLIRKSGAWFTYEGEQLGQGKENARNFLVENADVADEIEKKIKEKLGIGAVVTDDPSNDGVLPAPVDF
YopH inh = YopH tyrosine phosphatase inhibitors, primary screen, biochemical, fluorescence Ex485/Em525. inhibition, %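 (about 10 µM by stock and volumes)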. AID 898, 2007. hit rate 0.16% among 140,000. YopH tyrosine phosphatase [Yersinia enterocolitica];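 active means inhibition of 50% or more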;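 further: controls were vehicle for no effect and minimum signal wells for full effect; inactives centre near -20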
Mtb bLac sens = beta-lactam sensitization of Mtb H37Rv, H37Rv; inhibition, % at 25 µM; hit rate 0.27% among 330,000; M. tuberculosis H37Rv growth with meropenem, percent inhibition; hits of this screen are not shown here;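 active means about 74% or more and at least 40 points above the plate without the antibiotic, then above 30% in a dose series; inconclusive means first-round hits that could not be retested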;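 further: growth measured after seven days incubation then overnight dye step; 0% = bacteria only wells and 100% = bacteria with antibiotic; twin plates without the antibiotic show which effects depend on it; some results filed as inactive read as strong as hits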
Mtb H37Rv = M. tuberculosis H37Rv growth inhibitors, H37Rv strain (AID 1626); M. tuberculosis H37Rv growth inhibition; higher % means a stronger effect; one-dose inhibition, % at 10 µM; IC50 in µM for titrated hits; hit rate 0.95% among 220,000;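 active means confirmed in a dose series; inconclusive means inhibition above 80% but not taken into the dose series; inactive means below 80% or under 30% at every dose of the series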;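 further: bacteria incubated seven days before Alamar blue readout; 0% = bacteria only wells and 100% = bacteria with antibiotic wells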
Arbovirus inh repeat = further read-out of Arbovirus inh, marked with its call; inhibition, %; measured here: 10K subset replicate screen; many hits read low in the repeat;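 first of two repeat runs on a subset; 0% = infected and 100% = uninfected wells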
An asterisk follows results filed as active; ? = inconclusive; . = no result given; & = joins results of further samples.

SMILES	Arbovirus inh	RecA splice inh	YopH inh	Mtb bLac sens	Mtb H37Rv	others
O=C(N/N=C/c1cccn1-c1ccccc1)c1ccncc1	2	-1.3	.	98	?
COc1cc(/C=C/C(=O)NCC2CCCCC2)cc(OC)c1OC	.	0.4	.	3	.
O=C(NCCc1csc(-c2cccnc2)n1)c1ccccc1Br	.	5.7	.	0	2%
O=C(CN1CCN(c2ccccc2F)CC1)N1CCc2ccccc21	.	0.9	.	-2	.
O=C1C2CCCN2C(c2ccccc2)N1c1ccc(Cl)cc1 (stereo not given)	14	2.0	24	0	-1%
O=C(O)CCCn1cc(NC(=O)COc2ccccc2[N+](=O)[O-])cn1	3	-0.4	.	-7	7%
CCCOC(=S)N/C(=N\S(=O)(=O)c1ccccc1)c1ccccc1	-6	2.4	-9	55	5%
COc1ccc(-c2noc(CCC(=O)Nc3cc(Cl)c(OC)cc3OC)n2)cc1	-15	4.7	-2	-7	14%
NNC(=O)c1sc(-c2ccc(Cl)cc2)cc1N	12	6.4	.	-4	10%
CCOC(=O)C1=C(C)N(C)C(=S)NC1c1ccc(Cl)cc1 (stereo not given)	2	3.7	-27	-3	.
CC(=O)Nc1ccc(NC(=S)NC(=O)c2ccc([N+](=O)[O-])c(C)c2)cc1	-8	-0.6	-28	-6	3%
CSCCNC(=O)c1ccc2nc(Cc3ccccc3F)oc2c1	.	-2.7	.	9	.
O=C(COC(=O)COc1ccc(Cl)cc1)NC1CCCCC1	10	1.4	-25	-7	-3%
O=C1c2cc(O)c(O)cc2S(=O)(=O)C1c1ccccc1 (stereo not given)	.	-1.8	.	18	.
CC(=O)/C(N=Nc1cc2c(c([N+](=O)[O-])c1C)C(C)(C)CC2(C)C)=C(\C)O	.	0.6	.	2	10%
O=C(OCC(=O)N(Cc1ccccc1)C1CCS(=O)(=O)C1)c1cc2c(s1)CCCC2 (stereo not given)	8	-0.4	-1	.	8%
CC(C)Oc1ccc(C(=O)NC2CCCCC2)cc1	-4	29	-14	-3	-3%
O=C1Nc2cccnc2Sc2ccccc21	2	1.1	-20	3	-1%
Cn1c(N)c(C(=O)COC(=O)c2ccc(Cl)c(S(=O)(=O)N3CCCC3)c2)c(=O)n(C)c1=O	.	0.7	.	3	-4%
CC(C)Cc1ccc(CN2CCCC(NC(=O)c3ccoc3)C2)cc1 (stereo not given)	.	-0.6	.	12	.

Brought forward from above: two compounds; new compounds follow.
SMILES	Arbovirus inh	RecA splice inh	YopH inh	Mtb bLac sens	Mtb H37Rv	others
Cn1c(N)c(C(=O)COC(=O)c2ccc(Cl)c(S(=O)(=O)N3CCCC3)c2)c(=O)n(C)c1=O	.	0.7	.	3	-4%
CC(C)Cc1ccc(CN2CCCC(NC(=O)c3ccoc3)C2)cc1 (stereo not given)	.	-0.6	.	12	.
CCN(CC)C(=O)Cn1cc(C(=O)C(=O)N2CCN(c3ccc([N+](=O)[O-])cc3)CC2)c2ccccc21	.	5.0	.	-6	.
CCOC(=O)C1=C(C)NC(=O)NC1/C(C)=C/c1ccccc1 (stereo not given)	-1	-0.5	-36	-7	-2%
C=CCN(CC=C)Cc1cc(=O)n2c(-c3ccccc3)csc2n1	.	-0.4	.	2	.
CSc1cccc(NC(=S)N(CCCN2CCC(C)CC2)Cc2cccs2)c1	-9	-1.9	.	-6	10%
COc1cc(OC)nc(NC(=O)COC(=O)C2CCCCC2)n1	2	-2.0	-30	-2	-7%
CCOc1ccccc1NC(=O)CCS(=O)(=O)c1cccc2nsnc12	.	1.3	.	-5	.
O=C(CCN1CCOCC1)NNC(=S)NC(=O)c1ccc(Br)cc1	14	3.8	.	46	51%
O=C(O)c1cc(-c2cccc3ccccc23)nc2ccccc12	.	0.2	.	1	.
COc1ccc(C)cc1Nc1n[n+](-c2ccccc2)c(-c2cccc(Cl)c2Cl)s1	.	4.3	.	52	.
CCCn1nnnc1NC(=O)COc1ccc(CC)cc1	-3	3.8	-28	-3	1%
COc1ccc(-n2cc(C(=O)c3cc(Cl)ccc3O)cc(C#N)c2=O)cc1	15	0.6	.	2	6%
C/C(=N/Nc1ccnc2cc(Cl)ccc12)c1ccc(N)cc1	.	-3.4	.	-5	.
COc1ccc(S(=O)(=O)N2CCCN(CC(=O)Nc3cc(NC(C)=O)ccc3OC)CC2)cc1	-1	-2.8	6	-5	-6%
O=C(NCCc1ccc(Cl)cc1)C12CC3CC(CC(O)(C3)C1)C2	.	-0.2	.	2	.
CCCCCCc1cc2cc(C(N)=O)c(=N)oc2cc1O	-36	-445	15	74	-2%
C[N+](C)(C)CCOP(=O)(O)OP(=O)([O-])OC[C@H]1O[C@@H](n2ccc(N)nc2=O)[C@H](O)[C@@H]1O	10	-0.7	-11	4	-14%
O=C(CN1C(=O)COc2ccccc21)NC1CCCC1	.	-1.3	.	-3	.
COc1cc(NC(=O)CN2CCN(CC(=O)Nc3ccccc3OC)CC2)cc(OC)c1	.	-5.1	.	-3	.
Cc1nc2nc[nH]n2c(=O)c1NC(=O)c1c(-c2ccccc2Cl)noc1C	5	0.0	-31	-9	0%
O=C(Cn1cc(-c2nnnn2-c2ccc(Cl)cc2)c(=O)c2ccccc21)c1ccccc1	-6	2.8	-3	-2	-7%
CCN(CC)C(=O)Cn1cc(/C=C(\C#N)C(=O)N2CCN(c3ccccc3)CC2)c2ccccc21	-8	-0.7	-42	0	2%
CCOC(=O)c1c(S(=O)(=O)Nc2ccccc2OCC)c(C)n(C)c1C	.	0.4	.	3	.
CN(CC(=O)Nc1cccc(F)c1)C(=O)C1CCN(S(=O)(=O)c2ccc3c(c2)OCCO3)CC1	.	-1.9	.	-3	.
COc1ccc(NC(=O)C(NS(=O)(=O)c2cccs2)C(C)C)cc1Cl (stereo not given)	.	-5.7	.	2	.
CC(=O)c1c(C)nc(Nc2nc3ccccc3s2)nc1C	.	0.1	.	-3	-4%
CCOC(=O)C1=C(C)NC(c2cccs2)C(=O)N1 (stereo not given)	0	0.8	-40	1	-8%
Cc1cc(C)cc(NC(=S)NCCN2CCOCC2)c1	.	-1.4	0	-2	2%
CCOc1ccccc1N1CCN(C(=S)NCc2ccco2)CC1	1	2.8	-6	-2	1%
C/C(N)=C(/C#N)C(=O)COC(=O)CNS(=O)(=O)c1ccc2ccccc2c1	.	0.1	.	-1	-8%
CCN(CC)c1ccc(NC(=O)CN2CCN(CC(=O)Nc3ccc(OC)cc3)CC2)cc1	.	-0.3	.	-4	.
CC(C)c1nc(N2CCCC2)c(C#N)c2c1CCCC2	-5	19	-27	9	2%
COCc1nnc(NC(=O)C2CC(=O)N(C3CCCCC3)C2)s1 (stereo not given)	.	-2.1	.	3	.
O=C(NCc1ccccn1)c1cc2ccccn2n1	7	2.4	-42	-5	1%	Arbovirus inh repeat=1
COc1ccc(-c2nn(-c3ccccc3)cc2CNCCN2CCOC2=O)c(F)c1	4	-2.4	.	6	7%
COc1ccc(NC(=O)C2CCN(c3cnccn3)CC2)cc1Cl	.	1.2	.	1	.
CCCNC(=O)NC(=O)COC(=O)c1ccc(S(=O)(=O)N(C)c2ccccc2OC)cc1	-13	3.1	.	-2	-1%
NC(=O)CC(O)c1cccc(Cl)c1 (stereo not given)	-1	-3.1	-33	-10	.
COc1ccc(Nc2nc(Cl)nc(N3CCN(c4ccc(OC)cc4)CC3)n2)cc1	-5	-1.5	.	-5	-1%
CCN(C(=O)CSc1nnc(-c2cccs2)n1CC)C1CCS(=O)(=O)C1 (stereo not given)	.	-1.3	.	-7	-8%
Cc1ccc(-n2c(Cc3cccc4ccccc34)n[nH]c2=S)c(C)c1	5	-2.0	.	10	9%

5 compounds picked at random from those above:
SMILES	Arbovirus inh	RecA splice inh	YopH inh	Mtb bLac sens	Mtb H37Rv	others
CCN(CC)c1ccc(NC(=O)CN2CCN(CC(=O)Nc3ccc(OC)cc3)CC2)cc1	.	-0.3	.	-4	.
CC(C)c1nc(N2CCCC2)c(C#N)c2c1CCCC2	-5	19	-27	9	2%
COCc1nnc(NC(=O)C2CC(=O)N(C3CCCCC3)C2)s1 (stereo not given)	.	-2.1	.	3	.
CCN(CC)C(=O)Cn1cc(/C=C(\C#N)C(=O)N2CCN(c3ccccc3)CC2)c2ccccc21	-8	-0.7	-42	0	2%
Cc1cc(C)cc(NC(=S)NCCN2CCOCC2)c1	.	-1.4	0	-2	2%

Later entries:
SMILES	Arbovirus inh	RecA splice inh	YopH inh	Mtb bLac sens	Mtb H37Rv	others
FC(F)(F)c1cc(-c2cccs2)nc2nc(N3CCOCC3)sc12	-22	-1.7	.	6	3%
CCOc1ccc(NC(=O)C2CCCN(S(C)(=O)=O)C2)cc1 (stereo not given)	.	-1.5	.	-1	.
CCCCOC(=O)C1=C(C)Nc2ncnn2C1c1cccc(OC)c1OC (stereo not given)	3	-3.2	8	-4	0%
COC(=O)c1ccc(N2C(=O)CC(SCC(=O)Nc3ccc(OC)cc3)C2=O)cc1 (stereo not given)	.	0.8	.	1	-35%
Oc1cc2c(cc1O)[C@H]1c3ccccc3CN[C@@H]1CC2	2	-0.7	.	-2	-3%&2%
CCCOc1ccc(N2CC(C(=O)NC3=NCCS3)CC2=O)cc1 (stereo not given)	-6	.	.	20	.
O=c1c2cnn(-c3ccccc3)c2ncn1Cc1ccco1	3	-3.3	-11	-11	-5%
CCn1nc(C)cc1C(=O)Sc1ccc(Cl)cc1Cl	.	20	.	-2	41%
CCC(=O)Nc1ccc(S(=O)(=O)Nc2ncccn2)cc1	5	2.9	14	3	-3%
C/C(CC(=O)NC1CCCC1)=N\NC(=O)C1CCCCC1	-2	.	.	.	-4%
CCCCCCCn1c2c(c(=N)c3ccccc31)CCC2	-34	4.7	.	58	9%
O=C1N[C@H](Cc2ccccc2)CO1	.	-1.7	.	-1	.
CCN(CC)S(=O)(=O)N1CCC(C(=O)NC2CCCc3ccccc32)CC1 (stereo not given)	0	0.9	8	-5	-7%
CC(=O)n1nc(-c2cccnc2)nc1N	7	-0.4	-23	3	-3%
COc1ccc(-n2c(=O)cc(N3CCN(c4ccccc4F)CC3)[nH]c2=O)cc1	1	.	-29	-1	-6%
Cc1cc(=O)n2[nH]c(C(F)(F)F)c(-c3ccccc3)c2n1	.	-0.8	.	-7	.
CCn1c(=O)c([N+](=O)[O-])c(NCc2ccc3c(c2)OCO3)c2ccccc21	.	.	.	-16	-3%
Cc1cc(C)c2cc(C(=O)N(C)C3CCN(C)CC3)[nH]c2c1	.	5.2	.	5	-13%
CCn1c(SCC(=O)N2CCCCC2C)nc2ccsc2c1=O (stereo not given)	7	-0.3	4	-5	-18%
CCC(CC)C(=O)Nc1cccc(/C(C)=N/NC(=O)c2ccccc2Cl)c1	-10	-4.8	-12	-11	2%
CCOc1ccc(CNc2nc3ccccc3n2CCN2CCOCC2)cc1	3	0.3	-29	3	3%
COc1ccc(Nc2nc(N)nc(CSc3n[nH]c(-c4ccccc4)n3)n2)cc1	2	3.1	-42	-15	-8%
CNC(=O)C(=O)NCCN1CCN(C(=O)c2ccc([N+](=O)[O-])cc2)CC1	-1	5.2	.	-1	-1%
O=C(Nc1ccc(NC(=O)c2ccco2)nc1)c1ccccn1	-5	1.2	-36	-2	0%
CNC(=S)N/N=C/c1cn(CCOc2ccc(OC)cc2)c2ccccc12	-1	1.9	-12	33	.
COc1ccc2cc([C@H](C)C(=O)O)ccc2c1	-6	3.8	-33	6	5%
CCn1c(SCC(=O)N2CCN(c3ccc(F)cc3)CC2)nnc1-c1ccncc1	5	0.5	-39	.	-2%
O=C(COc1cc(Cl)ccc1Cl)Nc1nnc(CC(=O)N2CCOCC2)s1	9	.	-42	-8	5%
COc1ccc(CCNc2ncccc2C#N)cc1OC	.	-3.3	.	2	.
COC(=O)CSc1nc2c(c(=O)n(C)c(=O)n2C)n1CCCc1ccccc1	5	1.4	-18	-3	-11%
O=C(CN1C(=O)c2ccccc2S1(=O)=O)N1CCN(c2ccccc2F)CC1	3	-3.4	-31	-5	-7%	Arbovirus inh repeat=2
COC(=O)C1CCN(C(=O)NC2CCCCC2)CC1	3	1.5	-32	3	-5%
CCCSc1nnc(N2C(=O)C(O)=C(C(=O)c3ccco3)C2c2ccccc2F)s1 (stereo not given)	.	-0.4	.	3	.
Cc1ccc(NC(=O)[C@H](NC(=O)[C@@H]2Cc3ccccc3CN2)c2ccccc2)c(C)c1	.	4.8	.	2	.
O=C(Nc1ccc2c(c1)OCCO2)c1c(F)cccc1F	-8	-0.6	-21	-15	8%
COc1ccc(S(=O)(=O)Nc2cc(OC)c(NC(=O)c3ccco3)cc2OC)cc1	-3	-0.1	-39	3	1%
COc1ccc(OC)c(S(=O)(=O)n2ccnc2C)c1	3	-0.7	-3	-10	-5%
COc1cc([C@@H]2C[C@H]3CN(c4ccccc4)C(=O)[C@]34CCCN24)cc(OC)c1OC	-17	-2.6	.	-3	4%

An excerpt; count on the stated rates, not on these rows.
